MT1-MMP act inh: blocks activation of human MT1-MMP | GFP/RFP ratio change, % at 20 µM | AID 651647 | 0.061% of 360,000 active | P50281 | HT1080 RFP-PRO-GFP cells, GFP/RFP ratio fluorescence, overnight; percent of plate control window, DMSO zero;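 active means GFP/RFP ratio change of at least 30% with cell ATP level not reduced by more than half and red fluorescence within 50% of control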; further: strong numbers were not always called active
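Material: RFP-PRO-GFP reporter HT1080 cells. Dosing: single-point 20 µM compound, 1% DMSO. Controls: DMSO and RFP-L50D-GFP cell wells. Timing: cells overnight before dosing, compound overnight, 37 °C, 5% CO2. Measure: GFP/RFP fluorescence ratio.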
eIF4H inh: inhibitors of RNA binding by human eIF4H; Q15056; eIF4H fluorescence polarization binding assay; inhibition, % at 35 µM; 0.94% of 290,000 active; AID 2012;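 active means 50% or more with normal probe brightness, or confirmed in later tests; inconclusive means above 50% with abnormal brightness, or retests that disagree; inactive means below 50% or failed in later tests; about a fifth of its hits are not listed in these tables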;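 further: calls also rest on retests at 20 µM and on dose response follow-up; 0% = protein and probe with vehicle and 100% = probe without protein; strong numbers were not always called active; many hits fall short of the cut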
CSC inhib: cancer stem cell inhibition | cancer stem cell-like cells viability, luminescence | inhibition, % at 7.5 µM | 1.1% of 300,000 active;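 active means mean at 75% or more and at least half the replicates too; inconclusive means mean and replicates disagree; tested in HMLE shEcad cells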;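 further: 0% = median of negative and 100% = median of positive control wells; the first replicate is given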
HIV Env fusion: inhibitors of HIV Env-mediated cell fusion | HeLa-JRFL Env/CEM21 cell fusion, luciferase | inhibition, % at 12.3 µM | 1.1% of 360,000 active | AID 651610;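 active means mean replicate inhibition score of at least 50 and every replicate individually at or above 50; inconclusive means only one of the two criteria met; inactive means mean below 50 and not all replicates reaching 50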;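 further: 0% = plate neutral controls and 100% = maraviroc near 300 nM; one replicate is shown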
PABP polyA inh: blocks human PABP binding to poly(A) RNA | P11940 | fluorescence polarization | inhibition, % at 35 µM | 1% of 290,000 active;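 active means 50% or more with normal probe brightness, or confirmed in later tests; inconclusive means above 50% with abnormal brightness, or retests that disagree; inactive means below 50% or failed in later tests; about a fifth of its hits are not listed in these tables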;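 further: calls also rest on retests at 20 µM and on dose response follow-up; controls were probe without protein and protein plus probe with vehicle; some compounds called inactive have numbers as strong as hits; many hits fall short of the cut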
Target sequence (P11940 whole entry, looked up): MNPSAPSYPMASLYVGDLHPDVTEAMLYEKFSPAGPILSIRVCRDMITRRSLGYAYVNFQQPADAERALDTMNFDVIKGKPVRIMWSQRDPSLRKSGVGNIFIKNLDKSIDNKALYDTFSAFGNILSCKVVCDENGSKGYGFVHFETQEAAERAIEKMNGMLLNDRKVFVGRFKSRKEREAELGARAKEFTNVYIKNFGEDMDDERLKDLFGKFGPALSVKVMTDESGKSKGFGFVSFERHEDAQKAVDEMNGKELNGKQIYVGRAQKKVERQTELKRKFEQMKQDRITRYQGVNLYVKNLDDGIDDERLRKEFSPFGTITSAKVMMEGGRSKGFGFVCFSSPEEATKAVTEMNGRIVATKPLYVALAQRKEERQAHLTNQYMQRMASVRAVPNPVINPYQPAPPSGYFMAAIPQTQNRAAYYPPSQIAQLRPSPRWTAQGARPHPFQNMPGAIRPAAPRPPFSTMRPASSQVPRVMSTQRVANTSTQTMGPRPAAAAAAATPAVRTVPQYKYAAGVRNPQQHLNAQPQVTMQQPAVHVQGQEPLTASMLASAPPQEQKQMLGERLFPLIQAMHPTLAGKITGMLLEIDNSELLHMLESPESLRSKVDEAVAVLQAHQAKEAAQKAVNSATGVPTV
Yeast UUG start: yeast start codon fidelity modulation; S. cerevisiae UUG-firefly luciferase reporter, luminescence/redox ratio; AID 602363; 0.13% of 350,000 active; activity score, % at 18.7 µM;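 active means replicate mean at a twofold rise or more, about +100% in these data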;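 further: firefly luciferase made from a UUG start codon reports start codon fidelity; reporter light over untreated wells divided by growth signal over untreated wells; some hits fall short of that in this replicate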
Rce1 inhib: inhibitors of yeast Ras-converting enzyme | Q03530 | yeast membranes, quenched prenylated peptide cleavage fluorescence | 0.27% of 290,000 active | calls only | AID 2563;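 active means fall in fluorescence gain of 50% or more versus controls, with final raw signal at or below 3038400; inconclusive means same 50% fall but final raw signal above 3038400; inactive means fall in fluorescence gain under 50%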;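 further: plate controls were neutral control wells for no effect and wells lacking membranes for full effect; tested at 10 µM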
eIF4H inh retest: also measured in eIF4H inh; calls as there; inhibition, %; compound at 20 µM; confirmation average;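 mean of two retest wells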
PABP polyA inh retest: second read-out of PABP polyA inh, no call of its own (marks repeat the call); inhibition, %; compound at 20 µM; confirmation repeats;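 mean of two retest wells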
MT1-MMP act inh RFP: second read-out of MT1-MMP act inh, no call of its own (marks repeat the call); RFP signal change, %; measured here: RFP expression control read;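 0 = vehicle wells; hits needed this value within 50% of zero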
The depositor's hits bear a star; i = inactive; ? = inconclusive; · = no result given; + = active, no number; & = joins results of further samples.

SMILES	MT1-MMP act inh	MT1-MMP act inh RFP	eIF4H inh	CSC inhib	HIV Env fusion	PABP polyA inh	Yeast UUG start	Rce1 inhib	others
COc1cccc(NC(=O)CSc2nnc(-c3ccco3)c(-c3ccco3)n2)c1	-8	0	83*	-14	4	44*	0	i	eIF4H inh retest=88*;PABP polyA inh retest=82*
CCCC[C@@H]1CNC(=S)N1CCC12CC3CC(CC(C3)C1)C2	5	-2	-8	7	27	3	-11	i
Cc1ccc(S(N)(=O)=O)cc1NC(=O)C(c1ccccc1)c1ccccc1	-1	8	-6	-20	-8	-1	-26	i
CC1(C(=O)Nc2cccc3cccnc23)CCN1C(=O)Cc1ccc(Cl)cc1Cl (configuration not stated)	0	-8	·	·	8	·	4	·
CC(C)=CC(=O)Nc1nnc(C)s1	6	5	-8	-2	·	0	-7	i
Clc1ccc(N2N=C(c3cccs3)CC2c2ccco2)cc1 (configuration not stated)	-3	-3	-1	-7	·	-9	·	i
CC(Oc1ccc2cc(-c3ccccc3)c(=O)oc2c1)C(=O)NCC1CCC(C(=O)O)CC1 (configuration not stated)	0	6	-1	4	·	-2	-17	?
O=C(OCc1ccccc1)c1cn(-c2ccccc2)nc1-c1ccncc1	-5	0	0	3	18	-14	-18	i
CCCn1c(N)c(N(CCOC)C(=O)c2cc(C)cc(C)c2)c(=O)[nH]c1=O	0	5	-10	-1	-4	-1	-1	i
COc1ccc(CCN(C)CC(O)COc2ccc(C(C)=O)cc2OC)cc1OC (configuration not stated)	1	5	11	·	-1	-5	-7	i
CCNc1nc(C)c(CN(C(C)=O)c2ccccc2)nc1C#N	-1	3	-6	-10	-19	0	·	+
CCCCN(CC)S(=O)(=O)c1ccc(C(=O)Nc2nnc(-c3cccs3)o2)cc1	·	·	18	41	·	1	·	i
Cc1nn(C)c(=S)n1-c1ccc(Cl)cc1	-4	-6	-13	-11	15	-2	·	·
CCOC(=O)c1c(CN2CCN(Cc3ccccc3)CC2)n(C)c2cc(Br)c(OC)cc12	-9	-8	-8	·	-28	-3	7	i
CC(=O)C1=C(O)C(=O)N(c2ccc(C)cc2)C1c1ccccn1 (configuration not stated)	6	2	8	-10	-80	-5	-14	i
Cc1ccc(NC(=O)C2CCCN(S(=O)(=O)c3cccs3)C2)cc1 (configuration not stated)	2	-2	16	-3	·	1	-18	i
COc1ccc(-n2nnc3c(=O)n(CC(=O)Nc4ccc5c(c4)OCCO5)cnc32)cc1OC	-1	-1	12	-27	·	8	8	i
CN(C)S(=O)(=O)N1CCCN(S(=O)(=O)N(C)C)CC1	2	2	1	-9	-38	2	-17	i
CC(C)(C)C(=O)NC(=S)NNC(=O)c1sc2ccccc2c1Cl	-10	-33	9	·	·	-15	-13	i
CCC(C)Sc1ccc([C@H]2N[C@@](C)(C(=O)OC)[C@H]3C(=O)N(CC)C(=O)[C@@H]23)cc1 (some centres not stated)	2	-1	·	10	-44	·	3	i
COc1ccc(CCN2C(=O)N[C@@H](C(C)C)C2=O)cc1	-2	2	0	-6	10	5	-3	i
Cc1ccc(S(=O)(=O)N2CCC(C(=O)NCCCN3CCOCC3)CC2)cc1	1	5	·	-8	?	·	-25	i
Fc1ccccc1NC(=S)NCc1ccc2c(c1)OCO2	2	3	3	-18	-13	-6	·	i
CCc1cc2c(N3CCN(c4ccccc4)CC3)ncnc2s1	-3	-21	-1	-17	·	4	-27	i
COc1ccc(-c2nsc3c(N4CCCC4)ncnc23)cc1	10	11	11	2	-439	-4	-13	·

17 successive compounds out of the list so far:
SMILES	MT1-MMP act inh	MT1-MMP act inh RFP	eIF4H inh	CSC inhib	HIV Env fusion	PABP polyA inh	Yeast UUG start	Rce1 inhib	others
COc1cccc(NC(=O)CSc2nnc(-c3ccco3)c(-c3ccco3)n2)c1	-8	0	83*	-14	4	44*	0	i	eIF4H inh retest=88*;PABP polyA inh retest=82*
CCCC[C@@H]1CNC(=S)N1CCC12CC3CC(CC(C3)C1)C2	5	-2	-8	7	27	3	-11	i
Cc1ccc(S(N)(=O)=O)cc1NC(=O)C(c1ccccc1)c1ccccc1	-1	8	-6	-20	-8	-1	-26	i
CC1(C(=O)Nc2cccc3cccnc23)CCN1C(=O)Cc1ccc(Cl)cc1Cl (configuration not stated)	0	-8	·	·	8	·	4	·
CC(C)=CC(=O)Nc1nnc(C)s1	6	5	-8	-2	·	0	-7	i
Clc1ccc(N2N=C(c3cccs3)CC2c2ccco2)cc1 (configuration not stated)	-3	-3	-1	-7	·	-9	·	i
CC(Oc1ccc2cc(-c3ccccc3)c(=O)oc2c1)C(=O)NCC1CCC(C(=O)O)CC1 (configuration not stated)	0	6	-1	4	·	-2	-17	?
O=C(OCc1ccccc1)c1cn(-c2ccccc2)nc1-c1ccncc1	-5	0	0	3	18	-14	-18	i
CCCn1c(N)c(N(CCOC)C(=O)c2cc(C)cc(C)c2)c(=O)[nH]c1=O	0	5	-10	-1	-4	-1	-1	i
COc1ccc(CCN(C)CC(O)COc2ccc(C(C)=O)cc2OC)cc1OC (configuration not stated)	1	5	11	·	-1	-5	-7	i
CCNc1nc(C)c(CN(C(C)=O)c2ccccc2)nc1C#N	-1	3	-6	-10	-19	0	·	+
CCCCN(CC)S(=O)(=O)c1ccc(C(=O)Nc2nnc(-c3cccs3)o2)cc1	·	·	18	41	·	1	·	i
Cc1nn(C)c(=S)n1-c1ccc(Cl)cc1	-4	-6	-13	-11	15	-2	·	·
CCOC(=O)c1c(CN2CCN(Cc3ccccc3)CC2)n(C)c2cc(Br)c(OC)cc12	-9	-8	-8	·	-28	-3	7	i
CC(=O)C1=C(O)C(=O)N(c2ccc(C)cc2)C1c1ccccn1 (configuration not stated)	6	2	8	-10	-80	-5	-14	i
Cc1ccc(NC(=O)C2CCCN(S(=O)(=O)c3cccs3)C2)cc1 (configuration not stated)	2	-2	16	-3	·	1	-18	i
COc1ccc(-n2nnc3c(=O)n(CC(=O)Nc4ccc5c(c4)OCCO5)cnc32)cc1OC	-1	-1	12	-27	·	8	8	i

Further records:
SMILES	MT1-MMP act inh	MT1-MMP act inh RFP	eIF4H inh	CSC inhib	HIV Env fusion	PABP polyA inh	Yeast UUG start	Rce1 inhib	others
CCc1c(C(C)S(=O)(=O)c2ccc(C)cc2)[nH]c(=O)n1-c1ccc(C)cc1 (configuration not stated)	5	-3	15	10	5	-1	-14	i
O=C(NC(=S)NNC(=O)c1cccs1)c1ccco1	7	10	19	12	-9	9	-24	i
O=C(Cn1cnc2ccccc2c1=O)NCc1ccc2c(c1)OCO2	1	4	-4	-2	·	4	-16	·
Cc1cc2c(OCC(O)CNC3CCCCC3)cccc2[nH]1 (configuration not stated)	1	6	0	-4	-9	-2	·	i
Cc1cccc(Oc2ncnc(N)c2[N+](=O)[O-])c1	0	-2	-1	-11	15	-25	-21	i
COc1ccccc1CCNC(=O)C1CCC(=O)N(C2CC2)C1 (configuration not stated)	-3	0	-8	-12	15	-11	-3	i
CC(=O)c1cccc(N(C(=O)c2ccccn2)C(C(=O)NC2CCCCC2)c2ccccc2)c1 (configuration not stated)	0	5	0	·	6	7	-15	i
Cc1nnc2n(C3CCCCC3)c(=O)c3c4c(sc3n12)COC(C)(C)C4	3	0	-3	6	·	-10	-15	i
O=C(COc1ccc(Cl)cc1Cl)Nc1cccnc1	4	-1	4	17	-98	-7	-8	·
CCN(CC)C(=O)Oc1cc(COC)nc(-c2ccccc2)n1	-1	-3	-4	-4	8	2	0	i
CCCC(=O)N=C1SC2CS(=O)(=O)CC2N1c1ccc(CC)cc1 (configuration not stated)	3	4	-8	-8	·	9	-3	i
CC(C)Cn1c(=O)n(C)c(=O)c2[nH]cnc21	4	8	-2	-11	-286	6	-26	i
COCCNC(=O)c1ccc(C2SCC(=O)N2Cc2ccco2)cc1 (configuration not stated)	1	4	-2	-3	16	5	·	i
O=C(Nc1ccc2[nH]ncc2c1)C1CCC1	1	4	-6	-7	-25	16	-10	i
C[C@@H]1CN([C@H](C)CO)C(=O)CCCn2cc(nn2)CO[C@H]1CN(C)C(=O)Nc1ccccc1C(F)(F)F	2	4	·	·	7	·	-8&3&12	·
O=C(Nc1ccccc1Cl)c1cc(C2CCCCN2C(=O)c2ccccc2)on1 (configuration not stated)	0	-5	·	·	18	·	-10	·
Cc1cc(C)cc(N(CC(=O)N2CCCC2)S(C)(=O)=O)c1	0	1	-9	-27	-22	11	-16	i
N#CCCn1cc(C=C(C#N)C#N)c(-c2ccc(Cl)cc2)n1	0	0	-8	14	-1	1	·	i
Cc1ccc(NC(=O)CN2CCOCC2)cc1	2	8	-6	1	-1	-6	12	i
O=C1NC(=Nc2cccc(O)c2)S/C1=C\c1cccnc1	0	-1	-16	8	-7	-1	·	i
Cc1cccc(N2CCN(S(=O)(=O)c3ccc4c(c3)NC(=O)C(C)S4)CC2)c1C (configuration not stated)	1	-10	-11	25	10	-7	-18	i
COc1ccc(-c2cnc3c(NC(C)=O)cc(-c4cccc(C(=O)N(C)C)c4)cn23)cc1OC	2	5	·	·	31	·	3	·
COCCN(C(=O)CSc1nnc(C)n1-c1ccc(C)cc1)c1c(N)n(Cc2ccccc2)c(=O)[nH]c1=O	1	1	·	-11	·	·	·	i
CCc1nc2ccc(C(=O)NCCNC(C)=O)cn2c1N(CCC(C)C)CCN(C)C	0	5	·	·	13	·	-8	·
Cc1ccc(C(=O)N(C)CCOc2ccccc2)cc1S(=O)(=O)N1CCCCC1	1	-13	·	·	22	·	4	·
New compounds follow:
SMILES	MT1-MMP act inh	MT1-MMP act inh RFP	eIF4H inh	CSC inhib	HIV Env fusion	PABP polyA inh	Yeast UUG start	Rce1 inhib	others
CC(CCc1ccco1)NC(=O)c1cccc2c1C(=O)N(C1CCCCC1)C2 (configuration not stated)	-12	-9	-7	8	35	16	·	·
CN(Cc1nc(CC2CC2)no1)CC12CC3CC(CC(C3)C1)C2	4	1	0	-6	1	-3	-6	i
Cc1c(OCC(=O)N2CCC(C(N)=O)CC2)ccc2c3c(c(=O)oc12)CCCC3	-2	1	2	-15	·	17	-17	i
Cc1ccc(SCc2c(-c3ccccc3)nn(C)c2Cl)cc1	-6	-8	-2	9	·	4	-10	i
COC(=O)c1ccc(CSc2nnc(NCc3ccccc3)s2)o1	-3	-1	-20	-6	·	-3	-22	i
C/C(=N\NC(=O)c1c(Cl)cnn1C)c1ccc(NC(=O)c2ccc(Br)o2)cc1	1	0	5	9	-5	-11	-4	i
O=C(Nc1ccc2c(c1)CCC2)c1ncoc1-c1ccccc1F	0	-1	-2	·	19	-3	5	i
Cc1ccc(-c2cc3ccccc3nc2N)cc1	2	-3	-2	-6	-33	-5	8	i
O=C(COC(=O)c1cncc(Br)c1)NC12CC3CC(CC(C3)C1)C2	2	3	·	-4	7	·	-10	·
O=C1CN=CN=CN1c1ccc(Cl)cc1Cl	3	4	38	-11	-16	0	·	i
Cc1ccnc(SCCn2c(N3CC(C)OC(C)C3)nc3c2c(=O)n(C)c(=O)n3C)n1 (configuration not stated)	-1	0	2	-21	8	-7	·	i

2 entries picked at random from the list so far, as already listed:
SMILES	MT1-MMP act inh	MT1-MMP act inh RFP	eIF4H inh	CSC inhib	HIV Env fusion	PABP polyA inh	Yeast UUG start	Rce1 inhib	others
COc1ccccc1CCNC(=O)C1CCC(=O)N(C2CC2)C1 (configuration not stated)	-3	0	-8	-12	15	-11	-3	i
O=C1NC(=Nc2cccc(O)c2)S/C1=C\c1cccnc1	0	-1	-16	8	-7	-1	·	i

These rows are one share of the data, so the mix of outcomes need not match the whole.
